High-throughput results deposited in PubChem BioAssay by several laboratories.
CSC inhib: cancer stem cell viability inhibitors, primary screen, luminescence. cancer stem cell-like cells viability. inhibition, % at 7.5 µM. 1.1% of 300,000 active;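 active = mean at 75% or more and at least half the replicates too; inconclusive = mean and replicates disagree; tested in HMLE shEcad cells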;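 also: 0% = median of negative and 100% = median of positive control wells; the first replicate is given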
eIF4H inh: human eIF4H binding inhibitors, primary screen, translation initiation inhibitor project, biochemical, uHTS, fluorescence polarization. eIF4H fluorescence polarization binding assay. inhibition, % at 35 µM. 0.94% of 290,000 active. AID 2012, 2009;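 active = 50% or more with normal probe brightness, or confirmed in later tests; inconclusive = above 50% with abnormal brightness, or retests that disagree; inactive = below 50% or failed in later tests; about a fifth of its hits are not listed in these tables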;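 also: calls also rest on retests at 20 µM and on dose response follow-up; 0% = protein and probe with vehicle and 100% = probe without protein; strong numbers were not always called active; many hits fall short of the cut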
Env fusion inh: inhibitors of HIV-1 Env-driven cell-cell fusion, primary screen, HeLa-JRFL effector, CEM21 target cells, luciferase | inhibition, % at 12.3 µM | 1.1% of 360,000 active;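 active = mean replicate inhibition score of at least 50 and every replicate individually at or above 50; inconclusive = only one of the two criteria met; inactive = mean below 50 and not all replicates reaching 50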;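 also: 0% = plate neutral controls and 100% = maraviroc near 300 nM; one replicate is shown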
Rce1 inh: yeast Rce1p protease inhibitors, primary screen, biochemical, fluorescence, cell-free homogeneous. CAAX prenyl protease 2 (Saccharomyces cerevisiae (strain ATCC 204508 / S288c)), Q03530. 0.27% of 290,000 active. yeast membranes, quenched prenylated peptide cleavage fluorescence. AID 2563, 2010. calls only;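 active = fall in fluorescence gain of 50% or more versus controls, with final raw signal at or below 3038400; inconclusive = same 50% fall but final raw signal above 3038400; inactive = fall in fluorescence gain under 50%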;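 also: plate controls were neutral control wells for no effect and wells lacking membranes for full effect; tested at 10 µM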
MT1-MMP act inh: blockers of MT1-MMP proenzyme processing, primary screen, HT1080 RFP-PRO-GFP cells, GFP/RFP fluorescence | Matrix metalloproteinase-14 (Homo sapiens), P50281 | GFP/RFP ratio fluorescence, overnight; percent of plate control window, DMSO zero | GFP/RFP ratio change, % at 20 µM | 0.061% of 360,000 active | AID 651647, 2012;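 active = GFP/RFP ratio change of at least 30% with cell ATP level not reduced by more than half and red fluorescence within 50% of control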; also: strong numbers were not always called active
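Material: RFP-PRO-GFP reporter HT1080 cells. Dosing: single-point 20 µM compound, 1% DMSO. Controls: DMSO and RFP-L50D-GFP cell wells. Timing: cells overnight before dosing, compound overnight, 37 °C, 5% CO2. Measure: GFP/RFP fluorescence ratio.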
PABP polyA inh: PABP poly(A) RNA binding inhibitors, primary screen, biochemical, fluorescence polarization, uHTS; Polyadenylate-binding protein 1 (Homo sapiens), P11940; 1% of 290,000 active; AID 2014, 2009; inhibition, % at 35 µM;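 active = 50% or more with normal probe brightness, or confirmed in later tests; inconclusive = above 50% with abnormal brightness, or retests that disagree; inactive = below 50% or failed in later tests; about a fifth of its hits are not listed in these tables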;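 also: calls also rest on retests at 20 µM and on dose response follow-up; controls were probe without protein and protein plus probe with vehicle; some compounds called inactive have numbers as strong as hits; many hits fall short of the cut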
Target sequence (P11940 whole entry, looked up): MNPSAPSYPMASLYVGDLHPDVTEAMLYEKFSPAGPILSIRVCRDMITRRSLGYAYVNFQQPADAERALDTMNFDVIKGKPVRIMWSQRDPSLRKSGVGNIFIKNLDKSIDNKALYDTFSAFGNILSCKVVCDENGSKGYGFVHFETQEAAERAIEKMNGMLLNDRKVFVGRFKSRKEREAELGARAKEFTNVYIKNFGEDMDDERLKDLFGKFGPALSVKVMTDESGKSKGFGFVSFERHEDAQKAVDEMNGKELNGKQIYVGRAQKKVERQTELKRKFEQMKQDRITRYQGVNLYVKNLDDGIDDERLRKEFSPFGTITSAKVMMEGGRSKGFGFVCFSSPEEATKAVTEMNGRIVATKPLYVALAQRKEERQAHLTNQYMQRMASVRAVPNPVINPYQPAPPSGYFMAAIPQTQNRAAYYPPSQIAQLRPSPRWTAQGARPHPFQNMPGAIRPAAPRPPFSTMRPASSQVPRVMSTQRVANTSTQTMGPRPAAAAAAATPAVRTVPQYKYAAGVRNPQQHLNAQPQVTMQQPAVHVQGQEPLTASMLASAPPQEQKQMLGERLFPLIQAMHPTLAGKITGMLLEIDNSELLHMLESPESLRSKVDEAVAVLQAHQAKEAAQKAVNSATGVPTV
UUG fidelity: modulators of yeast start codon fidelity, primary screen, whole organism, S. cerevisiae, single point, plate reader; S. cerevisiae UUG-firefly luciferase reporter, luminescence/redox ratio; 0.13% of 350,000 active; AID 602363, 2012; activity score, % at 18.7 µM;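 active = replicate mean at a twofold rise or more, about +100% in these data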;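 also: firefly luciferase made from a UUG start codon reports start codon fidelity; reporter light over untreated wells divided by growth signal over untreated wells; some hits fall short of that in this replicate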
MT1-MMP act inh RFP: second read-out of MT1-MMP act inh, no call of its own (marks repeat the call); RFP signal change, %; measured here: RFP expression control read;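 0 = vehicle wells; hits needed this value within 50% of zero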
Active calls of the source: *; i = inactive; ? = inconclusive; . = not tested or not shown.

Sample of the layout:
SMILES	CSC inhib	eIF4H inh	Env fusion inh	Rce1 inh	MT1-MMP act inh	MT1-MMP act inh RFP	PABP polyA inh	UUG fidelity
CC(O)(c1ccccc1)c1nc(-c2cccc(C#N)c2)cs1 (configuration not stated)	.	.	35	.	-4	-1	.	-7
COC(=O)[C@H](CCSC)NC(=O)N1CCC(C)CC1	.	-2	-22	i	7	2	8	-6
O=C1C=C(O)C(n2cncn2)C(c2ccc3c(c2)OCO3)C1 (configuration not stated)	1	-5	0	i	-2	5	-12	.
Cc1cccc(NC(=O)c2cccnc2Oc2ccccc2)c1C(=O)O	-26	-1	19	i	-5	1	10	-9
COc1ccc(-n2ccnc(SCC(=O)NCc3ccc(C)cc3)c2=O)cc1Cl	3	.	-78	i	3	3	.	-10
N#Cc1c(NC(=O)c2ccccc2)sc2c1CCCCC2	21	-10	.	i	4	-2	-10	-25
O=C(COC(=O)c1ccc(F)c(S(=O)(=O)N2CCOCC2)c1)Nc1ccc2c(c1)OCO2	.	.	-6	.	1	7	.	-6
CCOc1ccc(NC(=O)CSc2nc3cccnc3n2CC)cc1	.	0	.	i	-4	-2	5	-18
Cc1c(C(=O)N2CCCCC2)c(S(=O)(=O)N2CCN(c3ccccc3F)CC2)c(C)n1C	-6	7	-1	i	-2	1	9	14
COCCn1c(-c2ccc(OC)cc2)cnc1SCC(=O)Nc1ccc(OC)cc1OC	9	-10	-16	i	-1	-2	11	.
CCN(CC)S(=O)(=O)c1ccc(N=N/C(C(C)=O)=C(/C)O)cc1	-18	3	.	i	1	0	8	-20
CC/C(C)=N\N=C\c1c(O)n(CC)c2cc(C3=NNC(=O)CC3)ccc12	13	2	.	i	0	8	-4	-7
CCC(=O)N1CCN(c2ccccc2NC(=S)NC(=O)c2ccco2)CC1	-5	0	-17	i	-2	0	11	-16
COc1ccc(Cl)cc1-n1c(C)cc(C=O)c1C	-1	-4	.	i	-6	-2	-1	.
Cn1nnnc1SCC(=O)NCC(=O)c1ccccc1	-13	0	-31	.	-3	-2	-4	.
O=C(CN(Cc1ccccc1Cl)C(=O)CNS(=O)(=O)c1ccc(F)cc1)NCC1CCCO1 (configuration not stated)	-8	-7	11	i	-1	-2	8	7
C=CCOc1cccc(C2c3c(oc4ccccc4c3=O)C(=O)N2c2ccccn2)c1 (configuration not stated)	10	-1	6	i	6	4	7	-23
O=c1[nH][nH]c(=O)c(Cl)c1Cl	.	.	2	.	3	3	.	-16
CCCC(O)(c1ccc(OC)cc1)C(CN(C)C)c1ccccc1 (configuration not stated)	0	-2	3	i	2	4	-1	-10

Main list, from the first entry:
SMILES	CSC inhib	eIF4H inh	Env fusion inh	Rce1 inh	MT1-MMP act inh	MT1-MMP act inh RFP	PABP polyA inh	UUG fidelity
CC(O)(c1ccccc1)c1nc(-c2cccc(C#N)c2)cs1 (configuration not stated)	.	.	35	.	-4	-1	.	-7
COC(=O)[C@H](CCSC)NC(=O)N1CCC(C)CC1	.	-2	-22	i	7	2	8	-6
O=C1C=C(O)C(n2cncn2)C(c2ccc3c(c2)OCO3)C1 (configuration not stated)	1	-5	0	i	-2	5	-12	.
Cc1cccc(NC(=O)c2cccnc2Oc2ccccc2)c1C(=O)O	-26	-1	19	i	-5	1	10	-9
COc1ccc(-n2ccnc(SCC(=O)NCc3ccc(C)cc3)c2=O)cc1Cl	3	.	-78	i	3	3	.	-10
N#Cc1c(NC(=O)c2ccccc2)sc2c1CCCCC2	21	-10	.	i	4	-2	-10	-25
O=C(COC(=O)c1ccc(F)c(S(=O)(=O)N2CCOCC2)c1)Nc1ccc2c(c1)OCO2	.	.	-6	.	1	7	.	-6
CCOc1ccc(NC(=O)CSc2nc3cccnc3n2CC)cc1	.	0	.	i	-4	-2	5	-18
Cc1c(C(=O)N2CCCCC2)c(S(=O)(=O)N2CCN(c3ccccc3F)CC2)c(C)n1C	-6	7	-1	i	-2	1	9	14
COCCn1c(-c2ccc(OC)cc2)cnc1SCC(=O)Nc1ccc(OC)cc1OC	9	-10	-16	i	-1	-2	11	.
CCN(CC)S(=O)(=O)c1ccc(N=N/C(C(C)=O)=C(/C)O)cc1	-18	3	.	i	1	0	8	-20
CC/C(C)=N\N=C\c1c(O)n(CC)c2cc(C3=NNC(=O)CC3)ccc12	13	2	.	i	0	8	-4	-7
CCC(=O)N1CCN(c2ccccc2NC(=S)NC(=O)c2ccco2)CC1	-5	0	-17	i	-2	0	11	-16
COc1ccc(Cl)cc1-n1c(C)cc(C=O)c1C	-1	-4	.	i	-6	-2	-1	.
Cn1nnnc1SCC(=O)NCC(=O)c1ccccc1	-13	0	-31	.	-3	-2	-4	.
O=C(CN(Cc1ccccc1Cl)C(=O)CNS(=O)(=O)c1ccc(F)cc1)NCC1CCCO1 (configuration not stated)	-8	-7	11	i	-1	-2	8	7
C=CCOc1cccc(C2c3c(oc4ccccc4c3=O)C(=O)N2c2ccccn2)c1 (configuration not stated)	10	-1	6	i	6	4	7	-23
O=c1[nH][nH]c(=O)c(Cl)c1Cl	.	.	2	.	3	3	.	-16
CCCC(O)(c1ccc(OC)cc1)C(CN(C)C)c1ccccc1 (configuration not stated)	0	-2	3	i	2	4	-1	-10
COC(=O)c1nn(-c2ccc(F)cc2)ccc1=O	-2	-8	-8	i	1	1	3	-7
Cc1cc(NC(=O)c2ccc3nccnc3c2)ccc1Br	-11	.	.	.	-1	-9	.	-8
C=CCN1C(=O)C(CC(=O)NCC)SC1=Nc1ccccc1OC (configuration not stated)	-14	-8	0	i	0	3	-3	0
O=C(/C=C/c1ccccc1Cl)N1CCCN(C(=O)/C=C/c2ccccc2Cl)CC1	-10	0	10	i	5	-3	13	2
CN(CC(=O)OCC(N)=O)S(=O)(=O)c1ccc(Cl)cc1	9	0	6	i	-2	2	6	.
CCOC(=O)c1cn(CC)c2cc(F)c(F)cc2c1=O	-8	4	0	i	0	0	-3	.
The results go on:
SMILES	CSC inhib	eIF4H inh	Env fusion inh	Rce1 inh	MT1-MMP act inh	MT1-MMP act inh RFP	PABP polyA inh	UUG fidelity
COc1ccccc1N1CCN(S(=O)(=O)c2ccc(NC(C)=O)cc2)CC1	10	-2	0	i	0	0	6	-7
COC(=O)c1cc2nc(-c3ccc(OC)c(OC)c3)cc(C(F)(F)F)n2n1	-3	-3	.	.	-2	1	-1	-6
CCN1C(=O)N(CC)C2C1N(CO)C(=O)N2CO (configuration not stated)	.	1	2	i	5	10	-6	.
Cc1ccc(SC(CC(=O)c2ccc(C(C)(C)C)cc2)C(=O)O)cc1 (configuration not stated)	47	-6	9	i	2	3	-4	.
O=C(Nc1ccc(C(=O)O)cc1)/C(=C\c1ccc2c(c1)OCO2)NC(=O)c1ccco1	-11	-4	1	i	0	6	-8	-2
Nc1c(Cl)cc(-c2cn(CCC(=O)O)c(-c3ccncc3)n2)cc1Cl	-2	.	5	.	10	9	.	-18
O=C(Nc1ccccc1F)C(=Cc1sc(N2CCOCC2)nc1-c1ccccc1)C(=O)Nc1ccccc1F	0	?	25	i	-85	-8	-9	.
O=C(COC(=O)Cc1ccc(Cl)cc1)NCCc1ccccc1	-4	.	-3	.	-1	-1	.	-12
CS(=O)(=O)Nc1ccc(C2=NN(C(=O)CCCC(=O)O)C(c3cccs3)C2)cc1 (configuration not stated)	-8	-3	-3	?	3	1	-5	-11
CCOC(=O)Cn1nc(C)n(-c2c(C)cccc2C)c1=O	-10	6	13	i	6	0	0	-1
COc1ccc2[nH]c(=O)c(CN(CCO)S(=O)(=O)c3c(C)ccc4nsnc34)cc2c1	-3	-5	-124	i	1	3	-4	.
O=C(COc1ccccc1)N1CCN(S(=O)(=O)c2ccc(Cl)cc2)CC1	-17	2	26	i	3	3	-3	-18
N#Cc1nc(COc2ccccc2F)oc1NCc1ccc(F)cc1	-4	-10	-2	i	-3	0	-9	-11
COc1ccc(N2CCN(C(=O)c3ccc4c(=O)n(CC5CCCO5)c(=O)[nH]c4c3)CC2)cc1 (configuration not stated)	-8	-14	17	i	11	-1	-2	-10
COc1ccccc1/C=C/C(=O)c1ccc(Cl)cc1	.	13	-34	i	-7	-8	8	.
O=C(NC(=S)Nc1ccc2cn[nH]c2c1)c1ccccc1	-1	-1	-32	i	1	-2	40	.
COc1ccccc1CNC(=O)COC(=O)c1ccc(S(=O)(=O)N2CCCC2)cc1	3	-7	.	i	-1	5	-6	-4
COc1ccc2nc(NC(=O)Cn3cnc4ccccc4c3=O)sc2c1	-11	0	1	i	-5	1	34	-12
COc1cc(NC(=O)c2ccc3nsnc3c2)cc(OC)c1OC	-24	-5	9	i	6	-1	9	-2
COc1ccc(NC(=O)c2[nH]ncc2[N+](=O)[O-])cc1	6	3	-23	i	4	10	-9	.
Cc1nn(-c2ccccc2)c(C)c1C(=O)OCC(=O)NC(=O)NC1CCCC1	-8	-3	.	i	5	-1	6	3
CCOc1ccccc1CNC(=O)CCCn1ncn2c(cc3occc32)c1=O	9	-10	7	i	1	4	0	-4
CCc1cc(=O)oc2cc(C)cc(OC(C)C(=O)NC3CCN(Cc4ccccc4)CC3)c12 (configuration not stated)	-11	-1	-12	i	3	2	-2	-4
Cc1nc(-c2cccc(NS(=O)(=O)c3cccc4ccccc34)c2)cs1	.	7	-11	i	-9	1	7	-2
Cc1ccccc1C(=O)Nc1ccccc1-c1nnn(CC(=O)Nc2ccc3c(c2)OCCO3)n1	5	4	-97	i	1	-3	7	-18
(further entries)
SMILES	CSC inhib	eIF4H inh	Env fusion inh	Rce1 inh	MT1-MMP act inh	MT1-MMP act inh RFP	PABP polyA inh	UUG fidelity
COc1ccc(N/C=C2/Sc3ccccc3NC2=O)cc1	-4	2	-57	i	5	2	13	3
O=C(CSc1n[nH]c(-c2cccnc2)n1)Nc1ccc([N+](=O)[O-])cc1Br	8	0	27	.	0	-6	-2	-8
CCOC(=O)C1=C(COC(=O)CC(C)c2ccccc2)NC(=O)NC1C (configuration not stated)	-12	.	.	.	5	1	.	-6
CC(=O)c1ccc(N2CCN(C(=O)CCCc3nc4ccccc4s3)CC2)cc1	-7	0	16	.	4	-13	-1	.
CCCN1CCC(NC(=O)Cc2ccccc2OC)CC1	-9	6	-4	i	-3	0	-16	-17
COc1ccc(N2CCN(C(=O)c3ccc(CNc4c(N5CCOCC5)c(=O)c4=O)cc3)CC2)cc1	-2	-6	26	i	-2	2	-1	-24
CN(C)CCN1C(=O)C(O)=C(C(=O)c2ccco2)C1c1ccccc1F (configuration not stated)	-1	8	12	i	5	5	13	-13
CC(C(=O)NCc1ccccc1)N1C(=O)C2CC=C(Cl)CC2C1=O (configuration not stated)	0	4	.	i	-3	3	9	6
S=C(Nc1cccc(Cl)c1)Nc1ccc2c(c1)OCCO2	5	5	-67	i	-2	2	2	-41
CC1(C)C2CCC(C2)C1C/C=N/NC(N)=S (configuration not stated)	0	-2	5	i	3	-7	-4	.
